Ecoli rRNA inh: inhibitors of bacterial rRNA selective over humanized ribosomes | E. coli WT GFP vs humanized-ribosome RFP mutants, fluorescence, 24 h; active compounds read low; DMSO median 0, no signal -100 | GFP signal change (wild-type ribosome), % (no concentration beside the values) | hit rate 1.6% among 350,000;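 active = significant combined selectivity score with lowered wild-type GFP, culture density cut under 30%, mutant RFP and density less affected; inactive = any of these conditions unmet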; also: one replicate is shown; some compounds called inactive have numbers as strong as hits
FGF22 binding: shifts melting point of recombinant human FGF22 | Q9HCT0 | recombinant FGF22 thermal shift, SYPRO orange fluorescence; percent of sucrose octasulfate shift, DMSO zero | hit rate 1.5% among 340,000 | calls only at 9.99 µM | AID 651658;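 active = melting point raised past a set limit in the mean and every replicate; three in four hits are not shown here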
Target sequence (Q9HCT0 whole entry, looked up): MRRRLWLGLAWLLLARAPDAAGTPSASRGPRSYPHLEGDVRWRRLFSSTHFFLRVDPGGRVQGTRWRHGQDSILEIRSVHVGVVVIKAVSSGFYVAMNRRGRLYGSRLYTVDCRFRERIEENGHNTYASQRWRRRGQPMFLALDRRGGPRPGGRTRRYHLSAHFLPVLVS
Ecoli rRNA inh OD600: recorded beside Ecoli rRNA inh, whose call it bears; OD600 change, %; measured here: OD600 growth;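 optical density of the mix in the first replicate; 0 = DMSO median and -100 = no signal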
Ecoli rRNA inh RFP: second read-out of Ecoli rRNA inh, no call of its own (marks repeat the call); RFP signal change, %; measured here: RFP humanized mutant strains;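 first replicate; 0 = DMSO median and -100 = no signal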
* hit, by the source's call; i = inactive. The list is partial; the hit share may differ from the screen's.

Field names: A = Ecoli rRNA inh; B = Ecoli rRNA inh OD600; C = Ecoli rRNA inh RFP; D = FGF22 binding
1. C[C@H](CO)N1C[C@H](C)[C@@H](CN(C)Cc2ccccc2)Oc2ccc(NC(=O)Nc3cccc4ccccc34)cc2CC1=O
  A = 2 | B = 15 | C = -0.4 | D = i

2. Cc1ccc(S(=O)(=O)Nc2cccc3c2O[C@@H](CN(C)CC2CC2)[C@@H](C)CN([C@H](C)CO)C3=O)cc1
  A = 3 | B = 3 | C = -2.6 | D = i

3. C[C@@H]1CCCCO[C@H](CN(C)C(=O)Nc2ccc(C(F)(F)F)cc2)[C@H](C)CN([C@H](C)CO)C(=O)c2cc(NC(=O)Cc3ccccc3)ccc2O1
  A = 4 | B = -1 | C = -4.3 | D = i

4. COC(=O)[C@]12C[C@H](CC(=O)NCCC(C)C)C(=O)N(Cc3ccc4c(c3)OCO4)C1=C[C@H](C(C)(C)C)O[C@@H]2C
  A = 15 | B = -9 | C = 4.0 | D = i

5. CC(C)CC#Cc1cnc2c(c1)C(=O)N([C@H](C)CO)C[C@@H](C)[C@@H](CN(C)Cc1cccc(F)c1)O2
  A = 1 | B = -16 | C = 7.4 | D = i

6. COc1ccc(S(=O)(=O)N(C)C[C@@H]2Oc3c(NS(=O)(=O)c4cn(C)cn4)cccc3C(=O)N([C@@H](C)CO)C[C@H]2C)cc1
  A = 1 | B = 10 | C = -0.3 | D = i

7. Cc1noc(C)c1NC(=O)Nc1ccc2c(c1)C(=O)N([C@H](C)CO)C[C@H](C)[C@H](CN(C)S(=O)(=O)c1c(C)noc1C)OCCCC[C@@H](C)O2
  A = 3 | B = 6 | C = 0.6 | D = i

8. CCCc1cn(CC[C@@H]2CC[C@@H](NC(=O)C3CC3)[C@@H](CO)O2)nn1
  A = 1 | B = 6 | C = -2.0 | D = i

9. COc1ccc(CN(C)C[C@@H]2OCCCC[C@@H](C)Oc3ccc(NC(=O)Nc4ccc5c(c4)OCO5)cc3C(=O)N([C@@H](C)CO)C[C@H]2C)cc1
  A = 2 | B = 2 | C = 2.9 | D = i

10. C[C@@H]1CCCCO[C@H](CN(C)Cc2ccc(C(=O)O)cc2)[C@@H](C)CN([C@H](C)CO)C(=O)c2cc(NS(C)(=O)=O)ccc2O1
  A = 0 | B = 2 | C = -0.8 | D = i

(next part)
Field names: A = Ecoli rRNA inh; B = Ecoli rRNA inh OD600; C = Ecoli rRNA inh RFP; D = FGF22 binding
11. C[C@H](O)C#Cc1ccc2c(c1)O[C@@H](CN(C)CC1CCOCC1)[C@H](C)CN([C@H](C)CO)S2(=O)=O
  A = 0 | B = -4 | C = -2.6 | D = i

12. CO[C@@H]1CN(C)C(=O)c2cc(NC(=O)c3ccccc3F)ccc2OC[C@H](C)NC[C@H]1C
  A = 3 | B = -1 | C = -2.6 | D = i

13. CN1CCN(C(=O)c2cc3c(c(-c4cccc(-c5cccc(C(=O)N(C)C)c5)c4)n2)[C@@H](CCO)N([S@](=O)C(C)(C)C)C3)CC1
  A = -2 | B = -2 | C = -2.5 | D = i

14. O=C(C[C@@H]1CC[C@@H]2NC[C@H](O)COC[C@H]2O1)Nc1ccc(-c2ccccc2)cc1
  A = -8 | B = -4 | C = -2.0 | D = i

15. COCC(=O)NC[C@H]1[C@H](c2ccccc2)[C@H](CO)N1C(=O)c1ccccc1
  A = 4 | B = 10 | C = -2.7 | D = i

16. CC(C)CC#Cc1ccc([C@@H]2[C@H]3CN(C(=O)NC4CCCC4)CCCCN3[C@H]2CO)cc1
  A = -58 | B = -66 | C = -2.3 | D = i

17. CCC(=O)Nc1ccc2c(c1)C(=O)N(C)C[C@H](OC)[C@H](C)CN(C(=O)c1ccccn1)[C@@H](C)CO2
  A = 2 | B = 1 | C = -0.8 | D = i

18. COc1ccccc1NC(=O)N(C)C[C@H]1Oc2ncc(C#CCN(C)C)cc2C(=O)N([C@H](C)CO)C[C@@H]1C
  A = 0 | B = 3 | C = -0.6 | D = i

19. COCC(=O)Nc1ccc2c(c1)[C@H]1C[C@@H](CC(=O)NC3CCCC3)O[C@@H](CO)[C@H]1O2
  A = 5 | B = 11 | C = -1.7 | D = i

20. C[C@H]1CN([C@@H](C)CO)C(=O)Cc2cc(NS(C)(=O)=O)ccc2O[C@@H]1CN(C)Cc1ccc2c(c1)OCO2
  A = 3 | B = 19 | C = 0.4 | D = i

Other records
Field names: A = Ecoli rRNA inh; B = Ecoli rRNA inh OD600; C = Ecoli rRNA inh RFP; D = FGF22 binding
21. Cc1ccc(S(=O)(=O)Nc2ccc3c(c2)C(=O)N([C@H](C)CO)C[C@H](C)[C@H](CN(C)C(=O)NC(C)C)OCCCC[C@@H](C)O3)cc1
  A = 1 | B = -1 | C = -1.0 | D = i

22. CN(C)C(=O)c1cccc(-c2ccc3n(c2=O)C[C@H]2[C@H](CO)[C@@H](C(=O)NCC(F)(F)F)[C@@H]3N2C)c1
  A = 1 | B = 0 | C = -5.1 | D = i

23. C[C@@H]1CN([C@H](C)CO)C(=O)c2cc(NC(=O)CCN3CCOCC3)ccc2O[C@H]1CN(C)Cc1ccc(-c2ccccc2)cc1
  A = 1 | B = 1 | C = -0.8 | D = i

24. O=C(c1ccccc1)N1CC2(C1)[C@@H](c1ccccc1)[C@@H](CO)N2Cc1cc(F)ccc1F
  A = -18 | B = -60 | C = 20 | D = i

25. C[C@H](CO)N1C[C@H](C)[C@H](CN(C)Cc2ccncc2)Oc2c(NS(=O)(=O)c3cn(C)cn3)cccc2C1=O
  A = 3 | B = 3 | C = -2.2 | D = i

26. C[C@@H]1CN([C@@H](C)CO)C(=O)c2cc(NC(=O)Cc3cn(C)c4ccccc34)ccc2O[C@@H]1CN(C)C(=O)Nc1ccc(C(F)(F)F)cc1
  A = -6 | B = -6 | C = 0.6 | D = i

27. C[C@@H]1CCCCO[C@H](CN(C)C(=O)Nc2cccc3ccccc23)[C@@H](C)CN([C@H](C)CO)C(=O)c2cc(NC(=O)C3CCCCC3)ccc2O1
  A = 1 | B = 4 | C = 0.5 | D = i

28. Cc1cc(C(=O)Nc2cccc3c2O[C@H](CN(C)Cc2ccc(-c4ccccc4)cc2)[C@@H](C)CN([C@H](C)CO)C3=O)n(C)n1
  A = 0 | B = 2 | C = 2.7 | D = i

29. C/C=C/c1cnc2c(c1)C(=O)N([C@H](C)CO)C[C@H](C)[C@@H](CN(C)C(=O)Nc1c(C)noc1C)O2
  A = 5 | B = 7 | C = -1.0 | D = i

30. Cc1ccccc1-c1ccc([C@H]2[C@H](CO)N3C(=O)CN(C(=O)c4ccncc4)C[C@@H]23)cc1
  A = -2 | B = 1 | C = -0.1 | D = i

More records
Field names: A = Ecoli rRNA inh; B = Ecoli rRNA inh OD600; C = Ecoli rRNA inh RFP; D = FGF22 binding
31. Cc1noc(C)c1NC(=O)Nc1ccc2c(c1)C(=O)N([C@H](C)CO)C[C@@H](C)[C@H](CN(C)CC1CCCCC1)O2
  A = 1 | B = 7 | C = -2.6 | D = i

32. COCC(=O)Nc1ccc2c(c1)C(=O)N(C)C[C@H](OC)[C@H](C)CN(CCC(F)(F)F)[C@H](C)CO2
  A = -2 | B = -2 | C = -1.8 | D = i

33. C[C@@H]1CCCCO[C@@H](CN(C)Cc2ccccc2)[C@@H](C)CN([C@H](C)CO)C(=O)c2cc(NC(=O)Nc3ccc4c(c3)OCO4)ccc2O1
  A = 3 | B = -1 | C = 2.6 | D = i

34. COc1ccc(CNC(=O)C[C@@H]2CC[C@@H]3[C@@H](COc4ccc(NC(C)=O)cc4C(=O)N3C)O2)cc1
  A = 1 | B = 9 | C = -2.3 | D = i

35. C[C@H]1CN([C@@H](C)CO)C(=O)c2cc(C3=CCCC3)cnc2O[C@@H]1CN(C)C(=O)Cc1ccncc1
  A = 0 | B = 1 | C = -1.2 | D = i

36. CCS(=O)(=O)N1CCCCN2[C@H](C1)[C@H](c1ccc(-c3ccc(C#N)cc3)cc1)[C@@H]2CO
  A = 2 | B = 9 | C = 1.1 | D = i

37. COc1ccc2c3c(n(C)c2c1)[C@H](CO)N(Cc1ccncc1)CC31CN(C(=O)C2CCCC2)C1
  A = 0 | B = 0 | C = 0.6 | D = i

38. Cc1noc(C)c1NC(=O)Nc1ccc2c(c1)C(=O)N([C@@H](C)CO)C[C@H](C)[C@H](CN(C)CC1CCCCC1)OCCCC[C@@H](C)O2
  A = 3 | B = 7 | C = -0.1 | D = i

39. Cc1noc(C)c1S(=O)(=O)Nc1ccc2c(c1)C(=O)N([C@@H](C)CO)C[C@H](C)[C@H](CN(C)Cc1ccccc1)OCCCC[C@@H](C)O2
  A = -1 | B = -7 | C = 0.7 | D = i

40. CO[C@H]1CN(C)C(=O)c2cc(NC(C)=O)ccc2OC[C@H](C)N(S(=O)(=O)c2cn(C)cn2)C[C@H]1C
  A = -1 | B = -4 | C = -0.7 | D = i

The list goes on:
Field names: A = Ecoli rRNA inh; B = Ecoli rRNA inh OD600; C = Ecoli rRNA inh RFP; D = FGF22 binding
41. COCC(=O)N[C@@H]1CC[C@H](CC(=O)NCc2ccc(Cl)cc2)O[C@@H]1CO
  A = -4 | B = -2 | C = 2.0 | D = i

42. C[C@@H]1ON(C)[C@H]2C[C@H]3c4[nH]c5cccc(Br)c5c4CCN3C(=O)[C@@H]12
  A = -34 | B = -51 | C = 24 | D = i

43. C[C@@H]1CN([C@H](C)CO)C(=O)Cc2cc(NC(=O)CCN3CCOCC3)ccc2O[C@H]1CN(C)C(=O)Nc1ccc2c(c1)OCO2
  A = 3 | B = 9 | C = 0.0 | D = i

44. O=C(Nc1cc(F)ccc1F)N1CCCCN2[C@H](CO)[C@@H](c3ccc(-c4ccccc4)cc3)[C@@H]2C1
  A = -24 | B = -47 | C = 11 | D = i

45. CO[C@H]1CN(C)C(=O)c2ccc(NC(=O)c3ccccc3)cc2OC[C@@H](C)N(C(C)=O)C[C@@H]1C
  A = -2 | B = 0 | C = -1.3 | D = i

46. CO[C@@H]1CN(C)C(=O)c2cc(NS(C)(=O)=O)ccc2OC[C@@H](C)N(CC2CC2)C[C@H]1C
  A = 0 | B = 4 | C = -1.3 | D = i

47. C[C@@H]1CN([C@H](C)CO)C(=O)Cc2cc(NS(C)(=O)=O)ccc2O[C@@H]1CN(C)S(=O)(=O)c1cn(C)cn1
  A = 4 | B = 12 | C = -0.9 | D = i

48. O=C(c1ccccc1F)N1CC[C@@H]2[C@@H](CO)Nc3ccc(C#Cc4ccc(F)cc4)cc3[C@@H]21
  A = -2 | B = 5 | C = 1.6 | D = i

49. C[C@@H]1CN([C@@H](C)CO)C(=O)c2cc(C3=CCCC3)cnc2O[C@H]1CN(C)C(=O)c1ccc(F)cc1
  A = -5 | B = 6 | C = 0.3 | D = i

50. COc1ccc(S(=O)(=O)Nc2ccc3c(c2)C(=O)N([C@H](C)CO)C[C@H](C)[C@H](CN(C)CC2CC2)O3)cc1
  A = 8 | B = 2 | C = 1.3 | D = i

Continuation:
Field names: A = Ecoli rRNA inh; B = Ecoli rRNA inh OD600; C = Ecoli rRNA inh RFP; D = FGF22 binding
51. O=S(=O)(c1ccc(F)cc1)N1CCCCN2[C@H](C1)[C@@H](c1ccc(-c3cncnc3)cc1)[C@@H]2CO
  A = -9 | B = -8 | C = 1.6 | D = i

52. CC(=O)N(C)C[C@@H]1Oc2ncc(-c3ccccc3C)cc2C(=O)N([C@H](C)CO)C[C@H]1C
  A = 4 | B = 12 | C = -1.3 | D = i

53. Cc1ccccc1S(=O)(=O)N1CC[C@@H]2[C@@H](CO)Nc3ccc(-c4cccc(F)c4)cc3[C@@H]21
  A = -10 | B = -20 | C = 36 | D = i

54. C/C=C/c1ccc2c(c1)O[C@H](CN(C)C(=O)CN1CCOCC1)[C@H](C)CN([C@H](C)CO)S2(=O)=O
  A = 1 | B = 5 | C = -3.6 | D = i

55. CC=Cc1ccc2n(c1=O)C[C@@H]1[C@@H](CO)[C@H](C(=O)N(C)C)[C@H]2N1CC1CCOCC1 (mixture of isomers)
  A = 1 | B = 4 | C = -1.5 | D = i

56. C[C@H](CO)N1C[C@H](C)[C@@H](CN(C)C(=O)c2ccccn2)Oc2cc(C#CCC3CCCC3)ccc2S1(=O)=O
  A = 1 | B = -40 | C = 32 | D = i

57. O=C(C[C@@H]1C[C@H]2c3cc(NC(=O)c4cccnc4)ccc3O[C@H]2[C@H](CO)O1)NC1CCCCC1
  A = 2 | B = 4 | C = -1.6 | D = i

58. C[C@@H](NC(=O)C[C@@H]1CC[C@H](NC(=O)C2CC2)[C@@H](CO)O1)c1ccccc1
  A = 0 | B = -1 | C = -0.7 | D = i

59. COC(=O)C[C@@H]1CC[C@@H]2[C@H](COC[C@@H](O)CN2C(=O)Nc2cccc(F)c2)O1
  A = -19 | B = -36 | C = 1.7 | D = i

60. Cc1noc(C)c1S(=O)(=O)Nc1cccc2c1O[C@H](CN(C)S(=O)(=O)c1ccc(Cl)cc1)[C@H](C)CN([C@@H](C)CO)C2=O
  A = -6 | B = -19 | C = 0.8 | D = i

61. CO[C@H]1CN(C)C(=O)c2cc(NC(=O)C3CCCC3)ccc2OC[C@H](C)N(CCC(F)(F)F)C[C@@H]1C
  A = -5 | B = -6 | C = 5.9 | D = i

62. C[C@H](CO)N1C[C@H](C)[C@H](CN(C)C)Oc2cc(C#Cc3cccnc3)ccc2S1(=O)=O
  A = 10 | B = 14 | C = 0.6 | D = i

Source: PubChem (Broad Institute)
